# NPYLR7 agonist: agonists of mosquito NPYLR7 receptor, primary screen, cell-based, Aedes aegypti, calcium fluorescence, mosquito biting behavior; activation, % at 10 µM; Aedes aegypti neuropeptide Y-like receptor 7 (NPYLR7); hit rate 0.15% among 270,000; HEK293T NPYLR7/Galpha15, GCaMP6s calcium fluorescence; in the data active means activation above about 40%;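 further: 0% = vehicle and 100% = reference agonist at the receptor; some compounds past the cut are filed as inactive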
# NPYLR7 agonist max-min: further read-out of NPYLR7 agonist, marked with its call; activation, %; measured here: Max-Min RFU normalised activation; some inactives read as strong as hits;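 span of the calcium signal over five minutes; 0% = vehicle and 100% = native peptide agonist; compound fluorescence can raise it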
# Starred values were filed as active, the others as inactive; & = joins results of further samples.
# Every second line gives: NPYLR7 agonist	NPYLR7 agonist max-min
- CC(C)[C@H](CO)Nc1nccnc1-c1ccc(OC(F)(F)F)cc1
→ -4	-10
- CC(C(=O)Nc1cc(Cl)ccc1C#N)N1C(=O)c2ccccc2S1(=O)=O (stereo unspecified)
→ 6	2
- Cn1cc(CN2CCC2(C)C(=O)NCc2ccccn2)c2ccccc21 (stereo unspecified)
→ 3	2
- CCS(=O)(=O)N1CCN=C1SCc1ccc(C(F)(F)F)cc1
→ 7	6
- FC(F)(F)c1ccc(CCC2CCN(Cc3cccs3)CC2)cc1
→ -1	9
- CCCCN(CC(=O)N1CC(=O)N(c2cccc(Cl)c2C)C1)C(=O)c1ccc(F)cc1
→ 10	13
- Cc1nc(-c2ccc(-n3ccnc3-c3ccc4onc(C)c4c3)cc2)n[nH]1
→ 11	4
- CC(NC(=O)c1ccc(-c2ccc(F)c(F)c2)s1)c1ccccc1 (stereo unspecified)
→ 5	2
- COc1ccc(CNC(=O)c2cn(Cc3ccccn3)c(=O)s2)cc1
→ 3	-2
- CC(C)(C)NC(=O)NCC1CN(c2ccccc2)C(=O)O1 (stereo unspecified)
→ 5	3
- Fc1cc(F)cc(-n2ncc3c2CCCC3NCc2cccn2-c2ncccn2)c1 (stereo unspecified)
→ 3	-1
- CCOC(=O)C1(CCCc2ccccc2)CCN(Cc2cnc(SC)nc2)CC1
→ -11&11	-5&10
- CCn1nnc2c(NCc3ccc4[nH]c(C)cc4c3)ncnc21
→ 7	12
- COc1ccc(NC(=O)CSc2nc(=O)n3cc(C)ccc3n2)cc1OC
→ 3	3
- CCN1CCN(C(c2ccc(Cl)c(Cl)c2)C2Sc3nc(C)nn3C2=O)CC1 (stereo unspecified)
→ -2	-1
- Cc1ccc(N2C(=O)NC(NC(=O)C(C)(C)C)(C(F)(F)F)C2=O)cc1C (stereo unspecified)
→ 18	8
- O=C(c1ccc(N2CCC(NCC3COc4ccccc4O3)CC2)cc1)N1CCOCC1 (stereo unspecified)
→ 16	10
- COc1ccc(CN(Cc2cccc(F)c2)C(=O)c2ccc(=O)[nH]c2)cc1
→ 0	-3
- O=C(CCl)Nc1ccnn1Cc1cccc(Cl)c1
→ 2	5
- Cc1ccoc1C(=O)N1CCc2c([nH]c3ccccc23)C1CC(C)C (stereo unspecified)
→ 15&0	4&-6

# Every second line gives: NPYLR7 agonist	NPYLR7 agonist max-min
- CCn1nc(C(=O)NCc2ccccc2F)c2ccccc2c1=O
→ 9	3
- CCOc1cccc(-c2nc3ccc(Cl)cc3c(=O)n2CCc2ccc(OC)cc2)c1
→ 6	7
- COc1ccc(Cc2n[nH]c(Cc3ccccc3)n2)c(OC)c1
→ 4	3
- CCOC(=O)N1CCC(NC(=O)C2CCC(=O)N(Cc3ccccc3F)C2)CC1 (stereo unspecified)
→ 17	6
- Cc1cc(C)n2nc(C(=O)NCC(C)N3CCCC(C)C3)nc2n1 (stereo unspecified)
→ 4	4
- CCCCCn1nc(C)c2c(C)cc(=O)[nH]c21
→ 0	-4
- CCC(Oc1ccccc1)c1nn2c(-c3cccnc3)nnc2s1 (stereo unspecified)
→ 1	0
- O=C(Nc1ccc(Cl)cc1Cl)N1CCSC1c1ccc(C(F)(F)F)cc1 (stereo unspecified)
→ 23	23
- O=C1CN([C@@H]2C[C@@H]3CO[C@H](c4ccccc4)C[C@@H]3C2)C(=O)N1C1CCCCC1
→ 26	28
- COCCNCC1(c2ccnc(-c3ccnn3C)c2)CC1
→ 15	30
- O=S(=O)(Nc1ccnn1Cc1ccccc1)c1ccccc1
→ -7	-8
- Cc1ccc(C2NC(=O)Nc3c2c(=O)[nH]c(=O)n3C)o1 (stereo unspecified)
→ 1	-2
- COCCNC(=O)c1cc2n(n1)CCN(Cc1ccccc1C(F)(F)F)C2=O
→ 18	8
- c1cncc(OCCCNC2CCC3(CCNCC3)CC2)c1
→ 9	6
- Cc1ccccc1-c1ncc(CN2CCC(O)(CO)CC2)cn1
→ 11	11
- COC(=O)CCC(=O)N1CCN(c2cc(S(=O)(=O)N3CCC(Cc4ccccc4)CC3)ccc2OC)CC1
→ 20	9
- Cc1cc(NC(=O)Cn2c(-c3ccccc3)c(C)sc2=O)on1
→ -23	-24
- Clc1ccc2c(c1)CN(Cc1ccc3c(c1)OCO3)CO2
→ 0	-1
- CC1CN(C(=O)c2ccc(-c3cc(-c4ccccc4)n[nH]3)cc2)CC(C)O1 (stereo unspecified)
→ 1	-5
- Cc1cccc(CO[C@]2(C(=O)NC(C)C)CC(OCc3ccccc3F)[C@H](O)[C@H](O)C2)c1 (stereo partly specified)
→ 3	11

# Every second line gives: NPYLR7 agonist	NPYLR7 agonist max-min
- COc1ccccc1CSc1nnc(-c2ccccc2Cl)n1-c1ccccc1Cl
→ 0	0
- CSc1ccc2cc(CN(C)Cc3cnccn3)c(=O)[nH]c2c1
→ 10	8
- Cc1nn(-c2ccc(F)cc2)c(Cl)c1C(=O)OC(C)C#N (stereo unspecified)
→ 14	11
- CCCCN=C1NN=C(c2c[nH]c3ccccc23)C(C)S1 (stereo unspecified)
→ -3	-4
- COc1cc(C#N)ccc1OCCCC(=O)Nc1ccc(C)cn1
→ 5	5
- O=C1C2C3C=CC(C3)C2C(=O)N1c1ccccn1 (stereo unspecified)
→ 12	9
- COc1ccc(C)cc1NC1CCCN(C(=O)c2ccc([N+](=O)[O-])cc2)C1 (stereo unspecified)
→ 1	8
- CCOCCCn1c(SC(C)C#N)nc2cc(S(=O)(=O)N3CCOCC3)ccc21 (stereo unspecified)
→ 9	5
- CCOC(=O)Cn1cnc2c(nnn2-c2ccc(OC)cc2)c1=O
→ 2	5
- CP(=O)(Nc1cc(Cl)ccc1Cl)c1nc2c(s1)CCCC2 (stereo unspecified)
→ 8	9
- COc1cccc(-c2nnc(SCc3ccc(C(=O)NC4CC4)cc3)n2-c2ccccc2F)c1
→ -1	3
- CCC(C)C(NS(=O)(=O)c1c(C)cc(C)cc1C)C(=O)Nc1nnc(-c2cccc(C)c2)s1 (stereo unspecified)
→ -4	1
- Cc1cc(C)cc(N2CCN(C(=O)c3cn(CCN4CCCCC4)nn3)CC2=O)c1
→ -3	-6
- CCN(CC)Cc1cccc(C(=O)Nc2ccccc2CO)c1
→ 1	-1
- COCCNC(=O)c1cc(NC(=O)Nc2ccccc2F)ccc1N1CCC(Cc2ccccc2)CC1
→ -4	5
- COc1ccc([C@@H]2CC(=O)c3c(O)cc(O)cc3O2)cc1O
→ -6&-2	-7&-3
- Cc1c(Cl)cccc1NC(=O)N(C)Cc1ccsc1
→ 0	-2
- CCN(CC)Cc1cnc2c(C(=O)N3CCN(c4cccnc4)CC3)cnn2c1
→ 0	-9
- CCCCN(CC(=O)Nc1cc(C(C)(C)C)nn1-c1ccc(C)cc1C)C(=O)c1ccc([N+](=O)[O-])cc1
→ -2	7
- COc1ccc(C2CC(c3ccccc3NS(C)(=O)=O)=NN2S(C)(=O)=O)cc1 (stereo unspecified)
→ 12	16

# Two entries drawn at random from those above, as already listed:
# Every second line gives: NPYLR7 agonist	NPYLR7 agonist max-min
- CP(=O)(Nc1cc(Cl)ccc1Cl)c1nc2c(s1)CCCC2 (stereo unspecified)
→ 8	9
- COc1ccc([C@@H]2CC(=O)c3c(O)cc(O)cc3O2)cc1O
→ -6&-2	-7&-3

# Continued.
# Every second line gives: NPYLR7 agonist	NPYLR7 agonist max-min
- CCc1ccc(NC(=O)N2CCSC2c2ccc(C(F)(F)F)cc2)cc1 (stereo unspecified)
→ -1	6
- O=C(C=Cc1ccc(Cl)cc1)Nc1cc2c(cc1Cl)OCO2
→ 5	2
- Cc1nc2n(c(=O)c1C)C(CC(=O)N1CCOCC1)CS2 (stereo unspecified)
→ 1	1
- CC1CCc2c(sc3nc(CN(CCN4CCOCC4)CC(O)Cc4ccccc4)[nH]c(=O)c23)C1 (stereo unspecified)
→ 1	13
- Cc1cc2nc(N3CCN(C(=O)NC4CCCCC4)CC3)c3ccccc3n2n1
→ -1	2
- COc1ccc(-c2nnc3ccc(SCC(=O)NC4CCCC4)nn23)cc1OC
→ 6	15
- CCC1CCC(N(CCCS(N)(=O)=O)C2CC2)CC1 (stereo unspecified)
→ 8	5
- CCCNc1cc(C(C)C)nc2c(-c3ccccc3)cnn12
→ -5	-7
- COc1ccc(NC(=O)N2CCc3nc(-c4ccccc4)nc(N4CC(C)OC(C)C4)c3C2)c(OC)c1 (stereo unspecified)
→ 1	12
- COC(=O)c1ccccc1COc1cccn2c(N(C)Cc3cccs3)c(C)nc12
→ 0	3
- Cc1ccc(Oc2ncccc2CNC(=O)CC(C)n2ccnc2)cn1 (stereo unspecified)
→ 7	5
- O=C(c1ccco1)N1CCN(c2ccc([N+](=O)[O-])cc2)CC1
→ -1	-4
- CCOc1ccc2c(c1)C=C(C(=O)NS(=O)(=O)c1ccc(Cl)s1)CO2
→ -2	-7
- CCOc1ccccc1-n1c(=O)[nH]c2c(C(N)=O)nc(-c3ccco3)nc21
→ 15	8
- O=C(NCC(F)(F)F)C1CCCN1C(=O)c1[nH]c2ccccc2c1Cl (stereo unspecified)
→ 6	3
- COc1ccccc1N1CCN(C(=O)c2cc(-c3ccc(F)cc3)n(-c3ccc(C)cc3)c2C)CC1
→ -4	6
- CCC(C)[n+]1c(C)cc(C=C2Sc3ccccc3N2C)cc1C (stereo unspecified)
→ 173*	217*
- CCc1cc2c(=O)[nH]cnc2s1
→ -6&3	-11&11
- OCC1CCCN(c2nc3cc4c(cc3cc2CNCCc2c[nH]c3ccccc23)OCO4)C1 (stereo unspecified)
→ 19	9
- CC(C)c1nc(CCOc2ccccc2)n(-c2ccccn2)n1
→ 13	-1

# 4 compounds already listed, arranged by heavy-atom count, descending:
# Every second line gives: NPYLR7 agonist	NPYLR7 agonist max-min
- COc1cccc(-c2nnc(SCc3ccc(C(=O)NC4CC4)cc3)n2-c2ccccc2F)c1
→ -1	3
- CCOC(=O)N1CCC(NC(=O)C2CCC(=O)N(Cc3ccccc3F)C2)CC1 (stereo unspecified)
→ 17	6
- Cc1ccc(N2C(=O)NC(NC(=O)C(C)(C)C)(C(F)(F)F)C2=O)cc1C (stereo unspecified)
→ 18	8
- O=S(=O)(Nc1ccnn1Cc1ccccc1)c1ccccc1
→ -7	-8

# (next part)
# Every second line gives: NPYLR7 agonist	NPYLR7 agonist max-min
- O=C(Nc1ccccn1)c1ccc(S(=O)(=O)Nc2ccccc2F)cc1
→ 0	-1
- CC1(C)S[C@@H]2[C@H](NC(=O)Cc3ccccc3)C(=O)N2[C@H]1C(=O)O
→ -3&11	-11&-3
- CC1CN(c2cc(Cl)nc(SCC(=O)NCCN3CCOCC3)n2)CCN1C(=O)c1cccc(F)c1 (stereo unspecified)
→ -1	14
- Cc1ccc(S(=O)(=O)C(C#N)=Cc2ccc(N3CCOCC3)cc2)cc1
→ 8	7
- CC(C)OCCCNc1nc2ccccc2nc1NS(=O)(=O)c1ccccc1
→ -10	-16
- COc1c2c(c(OC)c3occc13)OC1(CCN(C(=O)c3cccc(F)c3)CC1)CC2=O
→ 27	28
- COc1cc(Cn2nc(C3CC3)c3cnn(-c4cccc(Cl)c4)c3c2=O)cc(OC)c1
→ 5	4
- Cc1cc(-n2cccn2)ccc1CN1CCCC(CCC(=O)N(C)C2CCN(C)CC2)C1 (stereo unspecified)
→ 16	11
- Cc1nc(N2CCCC2C(N)=O)c2c3c(sc2n1)CCCCC3 (stereo unspecified)
→ 3	8
- CCn1c(CC2CCN(C(=O)CCc3n[nH]c(C)c3C)CC2)nn(C)c1=O
→ 29	21
- CN1CCN(c2nc(-c3ccc([N+](=O)[O-])cc3)cs2)CC1
→ 14	6
- COc1ccccc1-n1cc(CN2CCCC(CNC(=O)c3cc(C)on3)C2)cn1 (stereo unspecified)
→ 4&-7	-2&-8
- COc1cn(CC(=O)NC(C)(C)C)c(CN2CCN(c3ccc(F)cc3)CC2)cc1=O
→ 1	-1
- Cc1cc(C)cc(C(=O)Nc2ccccc2NS(C)(=O)=O)c1
→ 6	3
- COC(=O)C(c1ccccc1)N1CCC(O)(c2ccc(C)cn2)CC1 (stereo unspecified)
→ 11	11
- CCCCn1c(=O)[nH]c(=O)c2c1nc(CSc1nccn1C)n2C
→ 7	11
- COc1ccccc1N=Cc1nc(-c2ccccc2)oc1O
→ -8	-14
- CC1(C)CC2CC(C)(CN2C=CC(=O)C(F)(F)F)C1 (stereo unspecified)
→ 3	1
- CC(C)=CC(=O)N1CCC(CCc2ccc3c(c2)OCO3)CC1
→ 1	7
- COc1ccccc1NC(=O)c1cc(S(=O)(=O)N2CCCCC2)ccc1Cl
→ -3	-7

# Every second line gives: NPYLR7 agonist	NPYLR7 agonist max-min
- CCOC(=O)C1(Cc2cccc(F)c2)CCN(C2CCOCC2)CC1
→ 2&11	-3&9
- CCOc1ccc(C(=O)NCCN2C(=O)C(=Cc3ccc4c(c3)OCO4)SC2=S)cc1
→ 3	2
- Cc1cc(C(=O)N2CC=CC2C(C)C)cc(S(N)(=O)=O)c1C (stereo unspecified)
→ -2	0
- Cc1nc2c(c(N3CCCC3)n1)CCN(C(=O)c1snnc1C)C2
→ -1	-1
- c1nc(CSc2nnc(C3CC3)s2)cs1
→ -3	-7
- COCCN(CCC(=O)NCc1ccccc1)c1nc(-c2ccco2)nc2ccccc12
→ -3	9
- Cc1noc(C)c1CN1CCN2C(C(=O)NCCc3ccccc3)=COC2=NC1=O
→ 4	3
- COCC(=O)N1CCC(Oc2ccc(C(=O)NCC3COc4ccccc4O3)cc2)CC1 (stereo unspecified)
→ 14	10
- Cc1ccc(C(=O)NC(Nc2ccc(S(=O)(=O)Nc3nc(C)cc(C)n3)cc2)C(Cl)(Cl)Cl)cc1 (stereo unspecified)
→ -16	-13
- Cc1cc(NC(=O)CSc2nc3ncccc3c(=O)n2Cc2ccccc2Cl)n[nH]1
→ -8	-9
- N#CC1(C(=O)Nc2ccccc2Br)CCCC1
→ -25	-27
- O=C(Nc1ccc2c(c1)CN(S(=O)(=O)N1CCCC1)CC2)c1ccccc1Cl
→ 14	3
- COc1cc(OC)cc(C(=O)N(CCC(C)C)Cc2ccc(OS(C)(=O)=O)cc2)c1
→ 9	13

# Screening results as filed in PubChem BioAssay.

# Some of the compounds tested. The share of hits here may be higher or lower than overall.
